# Screening data as filed in PubChem.
# Rce1 inhib – inhibitors of yeast Ras-converting enzyme; Q03530; yeast membranes, quenched prenylated peptide cleavage fluorescence; 290,000 compounds, 0.27% hits; calls only; AID 2563;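 active = fall in fluorescence gain of 50% or more versus controls, with final raw signal at or below 3038400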;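 also: plate controls were neutral control wells for no effect and wells lacking membranes for full effect; tested at 10 µM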
# Target sequence (Q03530 whole entry, looked up): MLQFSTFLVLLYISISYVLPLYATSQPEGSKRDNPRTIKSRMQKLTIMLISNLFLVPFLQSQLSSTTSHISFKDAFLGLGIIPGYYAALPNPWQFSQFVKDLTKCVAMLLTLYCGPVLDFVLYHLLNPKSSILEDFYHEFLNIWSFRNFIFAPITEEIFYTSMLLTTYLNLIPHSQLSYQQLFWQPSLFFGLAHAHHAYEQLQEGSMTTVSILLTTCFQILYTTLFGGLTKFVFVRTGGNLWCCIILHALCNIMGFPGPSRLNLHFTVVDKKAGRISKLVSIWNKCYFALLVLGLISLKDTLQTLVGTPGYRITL
# Yeast UUG start – alters start codon recognition fidelity in yeast. S. cerevisiae UUG-firefly luciferase reporter, luminescence/redox ratio. activity score, % at 18.7 µM. 350,000 compounds, 0.13% hits. AID 602363;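 active = replicate mean at a twofold rise or more, about +100% in these data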;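 also: firefly luciferase made from a UUG start codon reports start codon fidelity; reporter light over untreated wells divided by growth signal over untreated wells; some hits fall short of that in this replicate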
# PABP polyA inh – PABP-poly(A) binding inhibition; P11940; 290,000 compounds, 1% hits; AID 2014; inhibition, % at 35 µM; PABP-poly(A) RNA binding, fluorescence polarization;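 active = 50% or more with normal probe brightness, or confirmed in later tests; about a fifth of its hits are not listed in these tables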;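 also: calls also rest on retests at 20 µM and on dose response follow-up; controls were probe without protein and protein plus probe with vehicle; some compounds called inactive have numbers as strong as hits; many hits fall short of the cut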
# Target sequence (P11940 whole entry, looked up): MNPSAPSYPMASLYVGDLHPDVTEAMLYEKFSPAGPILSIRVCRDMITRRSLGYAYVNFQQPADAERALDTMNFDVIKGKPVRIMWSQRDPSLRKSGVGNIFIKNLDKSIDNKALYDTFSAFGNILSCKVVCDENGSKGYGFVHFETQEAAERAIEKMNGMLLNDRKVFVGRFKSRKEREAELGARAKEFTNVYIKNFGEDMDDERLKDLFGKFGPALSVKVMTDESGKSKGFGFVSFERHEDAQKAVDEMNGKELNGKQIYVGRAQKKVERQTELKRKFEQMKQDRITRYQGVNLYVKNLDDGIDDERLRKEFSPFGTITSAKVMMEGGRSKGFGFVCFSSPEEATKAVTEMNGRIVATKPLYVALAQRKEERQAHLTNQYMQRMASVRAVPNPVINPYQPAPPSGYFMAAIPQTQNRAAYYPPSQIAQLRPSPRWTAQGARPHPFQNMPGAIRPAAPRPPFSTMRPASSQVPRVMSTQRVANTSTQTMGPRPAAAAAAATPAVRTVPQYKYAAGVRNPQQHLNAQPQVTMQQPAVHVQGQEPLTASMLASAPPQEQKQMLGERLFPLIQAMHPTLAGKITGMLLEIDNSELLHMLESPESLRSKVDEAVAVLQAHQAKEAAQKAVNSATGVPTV
# HIV Env fusion – inhibitors of HIV Env-mediated cell fusion. HeLa-JRFL Env/CEM21 cell fusion, luciferase. inhibition, % at 12.3 µM. 360,000 compounds, 1.1% hits. AID 651610;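 active = mean replicate inhibition score of at least 50 and every replicate individually at or above 50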;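 also: 0% = plate neutral controls and 100% = maraviroc near 300 nM; one replicate is shown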
# CSC inhib – blocks cancer stem cells. cancer stem cell-like cells viability, luminescence. inhibition, % at 7.5 µM. 300,000 compounds, 1.1% hits. AID 2717;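 active = mean at 75% or more and at least half the replicates too; tested in HMLE shEcad cells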;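 also: 0% = median of negative and 100% = median of positive control wells; the first replicate is given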
# eIF4H inh – inhibitors of RNA binding by human eIF4H; AID 2012; inhibition, % at 35 µM; Q15056; eIF4H fluorescence polarization binding assay; 290,000 compounds, 0.94% hits;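 active = 50% or more with normal probe brightness, or confirmed in later tests; about a fifth of its hits are not listed in these tables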;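 also: calls also rest on retests at 20 µM and on dose response follow-up; 0% = protein and probe with vehicle and 100% = probe without protein; strong numbers were not always called active; many hits fall short of the cut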
# MT1-MMP act inh – inhibitors of human MT1-MMP activation | P50281 | HT1080 RFP-PRO-GFP cells, GFP/RFP ratio fluorescence, overnight; percent of plate control window, DMSO zero | GFP/RFP ratio change, % at 20 µM | 360,000 compounds, 0.061% hits;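 active = GFP/RFP ratio change of at least 30% with cell ATP level not reduced by more than half and red fluorescence within 50% of control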; also: strong numbers were not always called active
#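 Assay system – RFP-PRO-GFP reporter HT1080 cells · Compound dosing – single dose of 20 µM compound, 1% DMSO final · Incubation – overnight compound exposure at 37 °C · Measure – GFP/RFP fluorescence ratio · Benchmarks – DMSO wells and RFP-L50D-GFP cells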
# MT1-MMP act inh RFP – also measured in MT1-MMP act inh; calls as there; RFP signal change, %; measured here: RFP expression control read;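 0 = vehicle wells; hits needed this value within 50% of zero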
# Starred values were filed as active, the others as inactive; i = inactive; x = no result given.
SMILES,Rce1 inhib,Yeast UUG start,PABP polyA inh,HIV Env fusion,CSC inhib,eIF4H inh,MT1-MMP act inh,MT1-MMP act inh RFP
CCCC(=O)Nc1ccc2oc(=O)ccc2c1,i,-10,-9,2,-5,-2,0,4
CCCOc1ccc(C2C(C(=O)c3cc4ccccc4o3)=C(O)C(=O)N2c2cc(C)on2)cc1 (stereo unspecified),i,-13,1,-2,-4,2,1,-2
Cc1nnc(NC(=O)CCn2c(=O)oc3ccccc32)s1,x,-14,1,2,3,-10,5,4
Cc1ccc(S(=O)(=O)Oc2ccc(/C=C(/NC(=O)c3ccccc3)C(=O)Nc3ccccc3)cc2)cc1,i,-26,0,x,4,3,1,-5
O=C(O)c1ccc(NS(=O)(=O)c2cc(Cl)sc2Cl)cc1,x,-12,-8,8,-6,1,2,1
Cc1cc([N+](=O)[O-])ccc1NCc1ccccc1,i,-14,-10,x,x,4,-1,-12
CC(C)(C)C(=O)NC1CC2CCCC(C1)N2C(=O)Nc1ccccc1Cl (stereo unspecified),i,-11,4,0,-1,6,3,0
CC1CCN(C(=O)CSc2ccc(-c3cccc([N+](=O)[O-])c3)nn2)CC1,i,-20,-4,8,-8,4,-4,-11
COc1ccc(/C=C2\N=C(SC)NC2=O)cc1,i,x,5,x,-19,-3,1,2
O=C(c1ccc(N2CCOCC2)c([N+](=O)[O-])c1)N1CCCC(C(F)(F)F)C1 (stereo unspecified),i,-32,x,-3,-6,x,1,1
Cc1cccc(NC(=O)NCCN2CCCCC2)c1,i,1,-3,15,2,4,1,3
COc1nnc(-c2ccc(C)c(S(=O)(=O)NCCO)c2)c2ccccc12,i,4,3,x,-11,-3,3,4
CC(C)(C)c1ccc(OCCC(=O)OCC(=O)NC2CC2)cc1,x,-1,x,x,-4,x,-1,2
COc1ccc(C(=O)N[C@H](C(=O)NCCc2ccc3c(c2)OCCO3)C(C)C)cc1,x,9,x,x,-4,x,-1,0
O=C(NCCN1CCOCC1)c1cc2cc(Br)ccc2oc1=O,i,8,-6,-5,-5,3,5,-2
CCn1nc(C)c(CNC(=O)CCc2nnc(Cc3c[nH]c4ccccc34)o2)c1C,i,-7,4,-2,-5,0,-1,4
O=C(C[n+]1ccccc1)N/N=C/c1ccc(Br)cc1,x,-17,x,0,x,x,-3,5
CCn1cc(CN2CCCC(C(=O)c3ccc(-c4ccccc4)cc3)C2)cn1 (stereo unspecified),i,x,11,16,25,0,4,-4
Cc1ccc([N+](=O)[O-])cc1S(=O)(=O)Nc1cccc(-c2ccc(N3CCCC3)nn2)c1,i,-7,x,11,8,x,3,-2
CCCN(CC(=O)Nc1ccccc1C)C(=O)c1cn2ccccc2n1,x,-21,x,2,-11,x,-3,2

# 3 compounds from above, ordered by formula weight, low to high.
SMILES,Rce1 inhib,Yeast UUG start,PABP polyA inh,HIV Env fusion,CSC inhib,eIF4H inh,MT1-MMP act inh,MT1-MMP act inh RFP
O=C(C[n+]1ccccc1)N/N=C/c1ccc(Br)cc1,x,-17,x,0,x,x,-3,5
COc1nnc(-c2ccc(C)c(S(=O)(=O)NCCO)c2)c2ccccc12,i,4,3,x,-11,-3,3,4
O=C(NCCN1CCOCC1)c1cc2cc(Br)ccc2oc1=O,i,8,-6,-5,-5,3,5,-2

# The list goes on.
SMILES,Rce1 inhib,Yeast UUG start,PABP polyA inh,HIV Env fusion,CSC inhib,eIF4H inh,MT1-MMP act inh,MT1-MMP act inh RFP
COc1ccc(Br)cc1/C=C/C(=O)Nc1ccc2ccccc2c1,i,-16,-4,x,77*,-11,-7,-8
CC(C)(C)NS(=O)(=O)c1ccc(NS(=O)(=O)c2ccc(F)cc2)cc1,i,-6,-8,x,x,-2,-1,-2
COC(=O)c1ccc(COc2ccc(/C=N/NC(=O)C(=O)Nc3ccc(OC)cc3)cc2OC)o1,x,-8,-7,-6,6,-2,-5,-5
CCOC(=O)c1ccc(NC(=O)CSc2nnc(CNc3ccc(C)cc3)n2C)cc1,i,-3,-2,-85,x,-4,-2,-7
O=C(O)c1ccc2c(=O)n3c(nc2c1)/C(=C/c1cccc(Cl)c1Cl)CC3,i,x,4,-14,-18,5,11,-9
O=C(O)/C=C/c1ccccc1[N+](=O)[O-],i,13,-3,2,-16,-14,-2,0
COc1cccc(CN2C(=O)CCC2(C)C(=O)NC2CCCCCC2)c1 (stereo unspecified),i,-5,3,-54,-8,-14,1,1
CCOc1ccc2nc(NC(=O)C3CCN(C(=O)c4ccco4)CC3)sc2c1,i,-10,-3,-16,x,-4,2,0
CCN1C(=O)[C@@H]2[C@H](C1=O)[C@@H]1C(=O)Nc3ccccc3C(=O)N1[C@@H]2c1ccccc1,i,0,x,6,-9,x,2,3
Clc1cccc(Oc2cnc3ccccc3n2)c1,i,-1,4,-76,-16,-9,-1,2
CC(C)Cc1cc(C(=O)N2CCC(N3CCC(C(=O)NC4CC4)CC3)CC2)n[nH]1,i,-1,-7,9,-11,2,-2,-2
COCCOC(=O)c1c(C)oc2ccc(NS(=O)(=O)c3ccc(C(=O)O)cc3)cc12,i,-2,15,-45,-10,5,2,1
CCC1(CC)C(=O)NC(=O)NC1=NCCc1ccc(O)cc1,i,-15,0,x,-1,-7,5,8
CCOC(=O)N1CCN(C(=O)Cn2c(=O)sc3ccccc32)CC1,i,-5,1,-29,3,-2,-4,-2
O=C(NCc1ccc2c(c1)OCO2)C(=O)NCC1OCCCN1S(=O)(=O)c1ccccc1 (stereo unspecified),x,-4,x,-2,x,x,8,-3
COc1ccc2[nH]c(O)c(NC(C)=O)c2c1,i,-19,-3,x,2,-1,3,3
COc1ccc(NC(=O)CSc2cccc3cccnc23)c(OC)c1,i,-17,-2,5,0,-2,2,3
CCn1cc(Br)c(C(=O)Nc2cccc(Cl)c2)n1,i,8,-11,x,-8,-14,-6,-2
CCOc1ccc(NC(=O)CC2C(=O)N(c3cccc(OC)c3)C(=O)N2C(C)C)cc1 (stereo unspecified),i,-9,-10,-6,-1,1,5,3
CCN1CCN(c2ccccc2NC(=O)C(C)Oc2ccc(C(C)=O)cc2)CC1 (stereo unspecified),x,-10,x,x,-9,x,-6,-1

# Overlap with the part before: 7 compounds; new compounds follow.
SMILES,Rce1 inhib,Yeast UUG start,PABP polyA inh,HIV Env fusion,CSC inhib,eIF4H inh,MT1-MMP act inh,MT1-MMP act inh RFP
CCOC(=O)N1CCN(C(=O)Cn2c(=O)sc3ccccc32)CC1,i,-5,1,-29,3,-2,-4,-2
O=C(NCc1ccc2c(c1)OCO2)C(=O)NCC1OCCCN1S(=O)(=O)c1ccccc1 (stereo unspecified),x,-4,x,-2,x,x,8,-3
COc1ccc2[nH]c(O)c(NC(C)=O)c2c1,i,-19,-3,x,2,-1,3,3
COc1ccc(NC(=O)CSc2cccc3cccnc23)c(OC)c1,i,-17,-2,5,0,-2,2,3
CCn1cc(Br)c(C(=O)Nc2cccc(Cl)c2)n1,i,8,-11,x,-8,-14,-6,-2
CCOc1ccc(NC(=O)CC2C(=O)N(c3cccc(OC)c3)C(=O)N2C(C)C)cc1 (stereo unspecified),i,-9,-10,-6,-1,1,5,3
CCN1CCN(c2ccccc2NC(=O)C(C)Oc2ccc(C(C)=O)cc2)CC1 (stereo unspecified),x,-10,x,x,-9,x,-6,-1
CCCCC1=CC2=CC(=O)C(C)(OC(=O)c3cccs3)C(=O)C2=CO1 (stereo unspecified),i,-13,x,-2,-11,x,-2,17
Cc1ccc(Oc2ccccc2/C=C2\SC(=O)N(C)C2=O)cc1,i,-9,-2,-36,31,-6,-6,-5
Cc1ccc(-c2nnn(CC(=O)N3CCN(c4ccccc4)CC3)n2)o1,i,x,1,x,5,-4,-2,-1
O=C(CSc1nnnn1-c1ccccc1)NC(=O)Nc1ccc2c(c1)OCCO2,i,-16,10,-38,-5,-4,-1,1
COc1cc(NC(=O)C2CCCCN2)ccc1OCC(C)C (stereo unspecified),i,9,-14,x,13,2,1,2
CCOC(=O)/C(C#N)=C1/SC(CCO)C(=O)N1c1ccccc1 (stereo unspecified),i,-15,3,x,-5,8,-6,-5
CC1(C(=O)NC2CCN(Cc3ccccc3)CC2)CCN1CCc1ccccc1 (stereo unspecified),x,-14,x,-13,x,x,7,4
CCN(C(=O)COC(=O)C1=COCCO1)c1c(N)n(Cc2ccccc2)c(=O)[nH]c1=O,x,1,x,19,x,x,1,4
CC(=O)NN1C(=O)/C(=C\c2ccc(C)cc2)SC1=S,i,-16,-4,-79,x,-10,-1,2
COc1ccc2c(ccc[n+]2CC(=O)c2ccccc2)c1,i,-11,4,2,4,6,-9,5

# Another view of some results above:
> CCOC(=O)N1CCN(C(=O)Cn2c(=O)sc3ccccc32)CC1
  Rce1 inhib = i | Yeast UUG start = -5 | PABP polyA inh = 1 | HIV Env fusion = -29 | CSC inhib = 3 | eIF4H inh = -2 | MT1-MMP act inh = -4 | MT1-MMP act inh RFP = -2

> O=C(NCc1ccc2c(c1)OCO2)C(=O)NCC1OCCCN1S(=O)(=O)c1ccccc1 (stereo unspecified)
  Rce1 inhib = x | Yeast UUG start = -4 | PABP polyA inh = x | HIV Env fusion = -2 | CSC inhib = x | eIF4H inh = x | MT1-MMP act inh = 8 | MT1-MMP act inh RFP = -3

> COc1ccc2[nH]c(O)c(NC(C)=O)c2c1
  Rce1 inhib = i | Yeast UUG start = -19 | PABP polyA inh = -3 | HIV Env fusion = x | CSC inhib = 2 | eIF4H inh = -1 | MT1-MMP act inh = 3 | MT1-MMP act inh RFP = 3

> COc1ccc(NC(=O)CSc2cccc3cccnc23)c(OC)c1
  Rce1 inhib = i | Yeast UUG start = -17 | PABP polyA inh = -2 | HIV Env fusion = 5 | CSC inhib = 0 | eIF4H inh = -2 | MT1-MMP act inh = 2 | MT1-MMP act inh RFP = 3

# Other compounds follow:
SMILES,Rce1 inhib,Yeast UUG start,PABP polyA inh,HIV Env fusion,CSC inhib,eIF4H inh,MT1-MMP act inh,MT1-MMP act inh RFP
c1ccc(C2[C@H]3CN(Cc4cccnc4)[C@H](c4ccccc4)C34CC2(c2ccccc2)C4)cc1 (stereo partly specified),i,-16,-6,4,-3,-12,-8,-13
Cc1ccc(C(=O)N2CCN(c3ncccn3)CC2)c(C)c1,x,-18,3,-4,-6,-11,-5,-1
COc1ccc(CCNC(=O)CSc2ccc(-c3ccco3)nn2)cc1OC,i,x,23,0,3,4,3,-2
COc1ccc(/C=N/N2C(=O)C3C4C=CC(C4)C3C2=O)cc1[N+](=O)[O-] (stereo unspecified),i,-19,-10,16,-14,9,0,3
NS(=O)(=O)c1cccc(NC(=O)c2cccc(N3C(=O)c4ccccc4C3=O)c2)c1,x,11,x,-7,16,x,0,1
O=C(Nc1ccc(Cc2ccncc2)cc1)C1CCC(N2C(=O)C3CCCCC3C2=O)CC1 (stereo unspecified),x,x,0,-64,-9,-12,8,-7
CC1=NN(c2ccccc2)C(=O)C1N=Nc1ccc(S(N)(=O)=O)cc1 (stereo unspecified),i,-7,4,23,0,-1,4,3
COc1ccccc1-c1c(C(F)(F)F)oc2cc(OCC(=O)Nc3ccccc3C(F)(F)F)ccc2c1=O,i,-1,4,-24,9,-7,3,3
C/C(=N\NC(=O)c1ccncc1)c1cc2ccccc2o1,i,-15,-11,18,1,-1,7,7
Cc1cccc(NC(=O)N2CCCC2C(=O)NCc2cccs2)c1 (stereo unspecified),i,-8,-13,x,3,-3,2,2
Cn1c(CO)cnc1SCC(=O)c1ccc(F)cc1,i,-15,-1,-8,-11,-1,-3,0
COc1ccc(N(C(=O)CNC(=O)c2cccs2)C(C(=O)NC2CCCC2)c2ccncc2)cc1 (stereo unspecified),i,-10,4,-26,x,-4,1,2
